NPYLR7 agonist – agonists of mosquito NPYLR7 receptor, primary screen, cell-based, Aedes aegypti, calcium fluorescence, mosquito biting behavior | HEK293T NPYLR7/Galpha15, GCaMP6s calcium fluorescence | 0.15% of 270,000 active | AID 1259423, 2018 | activation, % at 10 µM; in the data active = activation above about 40%;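 also: 0% = vehicle and 100% = reference agonist at the receptor; some compounds past the cut are filed as inactive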
NPYLR7 agonist max-min – second read-out of NPYLR7 agonist, no call of its own (marks repeat the call); activation, %; measured here: Max-Min RFU normalised activation; some inactives read as strong as hits;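 span of the calcium signal over five minutes; 0% = vehicle and 100% = native peptide agonist; compound fluorescence can raise it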
Numbers without * were called inactive; & = joins results of further samples. These rows are one share of the data; the hit share may differ from the screen's.

SMILES	NPYLR7 agonist	NPYLR7 agonist max-min
COC(=O)c1c(NC(=O)c2cnn3c(C(F)(F)F)cc(-c4ccc(OC)cc4)nc23)sc2c1CCC(C)C2 (stereo not given)	7.9	3.1
COc1ccc(/C=C/C(=O)N2CCCC2c2ccncc2)c(OC)c1 (stereo not given)	-0.8	-2.2
Cc1ccc(NC(=O)C(C)N2CCN(Cc3ccsc3)CC2)cc1 (stereo not given)	0.6	-0.4
CCc1nc2n(n1)C(=O)C(C(c1ccc(Br)cc1)N1CCC(O)CC1)S2 (stereo not given)	-2.7	-8.8
Cc1cc(NC(=O)c2cccc(=O)[nH]2)n(Cc2ccccc2Cl)n1	18.3	8.8
COc1cc2c(cc1OC)C(CNC(=O)c1ccccc1)N(C(=O)NC(C)(C)C)CC2 (stereo not given)	2.4	8.1
COc1ccc(/C=C2\SC(=S)N(CCC(=O)NN3CCN(C)CC3)C2=O)cc1	-1.0	4.4
COC(=O)C(CC(=O)c1ccc(C)cc1)n1cccn1 (stereo not given)	0.6	38.1
O=C(Oc1coc(CSc2ncccn2)cc1=O)c1cccc(Cl)c1	-11.7	-6.1
Cc1ccc(-c2cn(-c3ccc(C)cc3)c(=N)s2)cc1	17.1	6.0
CCC(NC(=O)CSc1nnc(N)s1)c1ccnn1C (stereo not given)	10.1	3.7
CCC1(CC)NC(=O)N(CC(=O)O)C1=O	1.4	0.1
COc1ccc(NC(=O)CCN(c2nc(C3CC3)nc3cc(Cl)ccc23)C2CCCCC2)cc1	18.7	25.5
O=C(N[C@@H]1CCCCC1NC(=O)[C@H]1CCCN1S(=O)(=O)c1cccc2ccccc12)c1ccc(F)cc1 (stereo not given in full)	22.1	22.0
Cc1ccc2[nH]c3c(c2c1)CN(C(=O)C1CCCN(CC(N)=O)C1)CC3 (stereo not given)	12.5	8.5
COc1cc(Cl)ccc1C(=O)NCc1cc(C(C)C)no1	6.0	4.7
O=C(CSc1nnc2ccc(-c3cccc([N+](=O)[O-])c3)nn12)Nc1nccs1	-10.7	-4.6
COCCCN(Cc1cccc(F)c1)Cc1ccc(C(O)(c2cccc(F)c2)c2cccc(F)c2)o1	4.4	4.4
CN(C)CCCN(C(=O)c1ccc2ncsc2c1)c1nc2ccc(Br)cc2s1	2.6	0.0
O=C(O)C1C2C=CC3(CN(C4CCCCC4)C(=O)C13)O2 (stereo not given)	0.7&10.6	0.2&-0.2
Cc1ccc2[nH]c(CN3CC=CCC3)nc2c1C	13.4	5.7
O=C(COc1ccc(Cl)cc1)Nc1nnc(SCCCOc2ccccc2)s1	-4.3	5.7
CC(C)C(NC(=O)Cc1ccccc1)C(=O)N(C)Cc1ccc(F)cc1F (stereo not given)	-0.3	-0.5
NC(=O)c1ccc(Nc2ncnc3sc4c(c23)CCCC4)cc1	8.0	7.2
CC(=O)Nc1ccc(S(=O)(=O)N2CCc3nc(-c4ccccc4)nc(N4CCCCC4)c3C2)cc1	13.1	15.0
CSCCCNC(=O)c1cc2c(s1)-c1ccccc1OC2	21.1	25.4
Cc1cc(C)c(-c2cc(NCCO)nc(N)n2)c(C)c1	10.3	6.9
COc1cc(=O)n(-c2ccccc2C)nc1C(=O)Nc1ccc(Oc2ccccc2)cc1	-8.2	-6.9
c1cc2occc2c(N2CCN(Cc3nc4c(s3)CCCC4)CC2)n1	2.3	4.2
Cc1cnc(C(=O)N2CCCC(CCc3cccc(F)c3)C2)cn1 (stereo not given)	6.2	2.1
COCCN(CC1CCN(Cc2ccccc2F)CC1)C(=O)c1ccnc2ccc(C)cc12	-3.5	-4.7
O=C(/C=C\c1ccc2c(c1)OCO2)Nc1c2c(nn1CC(=O)NCC1CCCO1)CSC2 (stereo not given)	-7.0	-4.9
O=C(NCc1ccc2c(c1)OCO2)c1cccnc1Nc1cccc(Cl)c1	-4.4	-16.2
COC(=O)NC1(c2ccccc2)CCCC1	5.3	0.6
COc1ccc2c(c1)OC1(O)COc3cc(OC)c(OC)cc3C1=C2 (stereo not given)	-8.1	-14.0
CCc1nc2n(n1)C(=O)C(C(c1cccs1)N1CCCC(C)C1)S2 (stereo not given)	-1.5	25.7
Cc1cc(C)c(C(=O)N2CCC3(CCCN(CCc4ccccc4)C3)C2)[nH]1 (stereo not given)	10.0	1.8
CCCN(CC(=O)Nc1cc(C(C)(C)C)nn1-c1cccc(C)c1C)C(=O)Cc1ccc(OC)cc1	11.0	20.6
O=c1c(O)c(-c2ccccc2)oc2ccccc12	-2.7	-11.0
COc1ccc(F)c(-c2nc(Cn3ncc4cccnc43)c(C)o2)c1	21.9	5.9
CN(Cc1ccsc1)C(=O)[C@H](N)c1ccccc1	-7.3	-10.0
S=C(NCc1ccc2c(c1)OCO2)c1ccccc1	2.7	-0.2
CCOCCOc1nc(-c2cccc(F)c2)n(-c2ccc(NC(=O)COc3ccc(Cl)cc3)cc2)n1	-9.9	-4.6
COc1ccccc1C(C)(C)NC(=O)NCC(=O)N(C)C	2.2	1.6
Cc1ccc(N2C(=O)CSC2c2cccc(NC(=O)c3ccco3)c2)c(C)c1 (stereo not given)	-0.5	8.1
CC1CN(C(=O)CN2CCc3sccc3C2c2cccc(F)c2)CCN1C(=O)c1cccs1 (stereo not given)	7.8	-3.3
CC1CN(c2cc(Oc3cccc(F)c3)ncn2)CCN1Cc1ccncc1 (stereo not given)	-1.4	-0.4
CC1=C(c2ccc(Cl)cc2)N2CCS(=O)(=O)N=C2S1	1.7	-1.7
COc1ccc(S(=O)(=O)Oc2ccc(CN(CCN(C)C)C(=O)c3ccccc3Cl)cc2)cc1	-3.3	-2.1
COc1ccc(C)cc1C(C)NC(C)c1nnc(-c2ccccc2)o1 (stereo not given)	-1.3	-2.9
Cc1ccccc1-c1cc(O)c2c(c1)CN(C(=O)c1ccnc(N)c1)CCO2	4.2	0.1
CCNC(=O)C(C)Sc1nnc(N2CCCC2)n1-c1ccc(C)cc1 (stereo not given)	2.8	1.3
COc1ccc(C2C3=C(CC(C)(C)CC3=O)OC3=C2C(=O)CC(C)(C)C3)cc1OC	-4.7	-9.0
CSc1ccccc1NC(=O)C(C)(C)Oc1ccc(Cl)cc1	5.5	8.9
Cc1ccc(F)cc1C(=O)N1CCC1(C)C(=O)O (stereo not given)	-1.5	-5.0
COc1ccc(-n2nc(-c3ccccc3)c3c2N(CC(=O)NCC2CCCO2)C(=O)CSC3c2cccc(F)c2)cc1 (stereo not given)	7.7	18.2
O=C(OCc1nc(C(=O)NCCc2ccccc2)cs1)c1ccccc1	-5.7	-14.7
CCOC(=O)C1(Cc2cccc(OC)c2)CCCN(Cc2cc(C(C)C)n[nH]2)C1 (stereo not given)	-9.8	-15.0
CNC(=O)CC1CCN(Cc2nc(-c3ccc(SC)cc3)oc2C)CC1	1.4	-8.2
CCc1nonc1NC(=O)c1ccccc1Br	-23.4	-21.7

4 entries already listed, ordered by molar mass, rising:
SMILES	NPYLR7 agonist	NPYLR7 agonist max-min
CCNC(=O)C(C)Sc1nnc(N2CCCC2)n1-c1ccc(C)cc1 (stereo not given)	2.8	1.3
CCOC(=O)C1(Cc2cccc(OC)c2)CCCN(Cc2cc(C(C)C)n[nH]2)C1 (stereo not given)	-9.8	-15.0
COc1ccc(C2C3=C(CC(C)(C)CC3=O)OC3=C2C(=O)CC(C)(C)C3)cc1OC	-4.7	-9.0
COc1ccc(-n2nc(-c3ccccc3)c3c2N(CC(=O)NCC2CCCO2)C(=O)CSC3c2cccc(F)c2)cc1 (stereo not given)	7.7	18.2

Going on with the list.
SMILES	NPYLR7 agonist	NPYLR7 agonist max-min
CCCCOC(=O)C1=C(C)N(C)C(=O)NC1c1ccccc1Cl (stereo not given)	5.5	5.4
Cc1cccc(-c2cc(N)n(-c3ccc(C(=O)NCC4CCCCC4)cc3)n2)c1	-6.8	-11.0
COCCn1cnnc1SC(c1ccccc1)C(F)(F)F (stereo not given)	-4.4	-3.5
CCC(=O)N(Cc1cc(NS(=O)(=O)c2ccc(OC)cc2)ccc1N(C)C)C1CCCCC1	-5.0	5.3
Cc1ccc(C2=NN(C(=O)CN3CCc4ccccc4C3)C(c3ccccc3C)C2)c(C)c1 (stereo not given)	-10.6	3.2
Cc1nnc(CNC(=O)CCOc2cc(Cl)cc(Cl)c2)n1C	0.2	-3.1
NCc1ccc(S(N)(=O)=O)cc1	-1.1&-6.9&4.3&0.0	-4.5&-11.7&-2.6&-4.1
Cc1ccc(/C=C/C(=O)N2c3ccccc3C[C@H]2C(N)=O)o1	-3.5	-5.8
CC1=NC2=C(C(=O)CC(c3ccccc3)C2)C(c2ccc(F)cc2)C1C(=O)OC1CCCC1 (stereo not given)	1.1	0.3
CCC(=O)N1CCC1(C)C(=O)Nc1ncc(C)s1 (stereo not given)	4.2	2.0
COc1ccc2c(c1)OCC(C(=O)C(C#N)c1nc3ccccc3o1)C2 (stereo not given)	-2.2	-3.0
CCn1c(C2CCN(C(=O)c3snnc3C(C)C)CC2)nn(C)c1=O	3.0	0.9
Cc1[nH]cnc1CN1CCOC(CCc2ccccc2)C1 (stereo not given)	6.6	3.7
CCC(CO)NC(=S)N=P(c1ccccc1)(N(CC)CC)N(CC)CC (stereo not given)	2.0	-0.6
O=C(NCc1ccccc1)C1CNCC1c1cccc(C(F)(F)F)c1 (stereo not given)	15.9	7.4

Some of the entries so far, with two lines to a compound.
Sequence of screens – NPYLR7 agonist, NPYLR7 agonist max-min
- CC1=C(c2ccc(Cl)cc2)N2CCS(=O)(=O)N=C2S1
  1.7, -1.7
- CCc1nc2n(n1)C(=O)C(C(c1cccs1)N1CCCC(C)C1)S2 (stereo not given)
  -1.5, 25.7
- COc1cc(=O)n(-c2ccccc2C)nc1C(=O)Nc1ccc(Oc2ccccc2)cc1
  -8.2, -6.9

The listing picks up with the two entries that preceded the break.
SMILES	NPYLR7 agonist	NPYLR7 agonist max-min
CCC(CO)NC(=S)N=P(c1ccccc1)(N(CC)CC)N(CC)CC (stereo not given)	2.0	-0.6
O=C(NCc1ccccc1)C1CNCC1c1cccc(C(F)(F)F)c1 (stereo not given)	15.9	7.4
Cc1ccc(NC(=O)COc2ccc3oc4c(c3c2)CCCC4)cc1S(=O)(=O)N1CCOCC1	0.7	2.2
O=C(CCN1CCSC1=O)NCc1nccc2ccccc12	0.8	-0.2
CN1CCN(c2ccc3nc(-c4c(N)c5c(F)cccc5[nH]c4=O)[nH]c3c2)CC1	-4.0&3.1	-14.7&-2.9
COc1ccc(S(=O)(=O)NC(=O)C2(C)CCN2C(=O)CC2CCCC2)cc1 (stereo not given)	5.5	4.9
CC(=O)N1CCN(c2cc(-c3ccccc3)nc(SCc3cccc(C(=O)NCCc4ccccn4)c3)n2)CC1	13.5	8.5
Cc1ccc(C(=O)NCCn2cc(SCC(=O)NCc3ccccc3)c3ccccc32)cc1	23.3	20.2
O=C(NCc1cc(-c2ccc(F)cc2F)on1)C1CC(=O)N(c2ccccc2)C1 (stereo not given)	0.7	-0.9
CCCCN(CC(=O)N1c2ccccc2-n2cccc2C1c1ccc(F)cc1)C(=O)c1cc(OC)cc(OC)c1 (stereo not given)	9.2	15.9
CC1(C)C[C@@H]2C[C@@](C)(CN2c2cc(CCN)ncn2)C1	37.6	16.3
Cc1cc(-n2c(C)cc(C(=O)CSc3nncn3C)c2C)no1	0.7	-0.2
CCOC(=O)Cn1c(C2CC(=O)N(CC(C)C)C2)nc2ccccc21 (stereo not given)	11.8	5.7
CN(C)CCN1C(=O)C(O)=C(C(=O)c2cccs2)C1c1cccs1 (stereo not given)	7.6	6.7
CCCc1cnc(C)nc1N1CCC(O)(c2ccc(C)cn2)CC1	20.6	11.2
CCCCCCCCC(=O)Nc1c(-c2ccccc2OC)nc2cc(C)ccn12	-10.0	-6.6
COc1ccc(C(=O)NS(=O)(=O)c2ccc(C#N)cc2C(F)(F)F)cc1	2.5	1.1
